gsp ag – agonists of gsp mutant (McCune-Albright syndrome); gsp mutant cells, cAMP HTRF, 30 min; control for the full effect not named in the record; Potency, µM (doses to about 76.9 µM), inactives show top-dose activation (cAMP increase), most hits filed as activators; 340,000 compounds, 0.13% hits; AID 624287; active = well fitted activation curve with a large enough effect; inconclusive = small, poorly fitted or top-dose-only effect, or another doubt; inactive = no such curve, though single readings can be large or run the other way; cell line not stated here;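 also: phosphodiesterase inhibitor Ro 20-1724 added with compounds to block cAMP breakdown; potency is read from the fitted curve at half-maximal effect; nearly all actives have a fitted effect of over 60% in size; about a fifth of the inactives were tested at one dose only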
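Cells in DMEM/10% FBS with G418 were pretreated with compounds in DMSO plus […] (300 uM stock) for 30 min at 37C. cAMP was measured by HTRF (cAMP-d2 plus anti-cAMP antibody-K) after 30 min at room temperature.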
Menin-MLL FL inh – inhibitors of human menin-MLL interaction, wild-type MLL peptide; Fluorescence polarization, fluorescein-MLL peptide displacement from menin; 290,000 tested, under 10 active; FP activity change, % at 61.4 µM; inconclusive = falling polarisation curve, or a change in total fluorescence; inactive = total fluorescence flat and polarisation flat or rising; no compound was filed as active; the % refers to the polarisation; negative = inhibition;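 also: % of control where 0% means no effect; inhibitors lower the polarisation; unlabelled MLL peptide was the positive control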
Sfp inh – Sfp phosphopantetheinyl transferase inhibition; Biochemical Sfp PPTase activity, qHTS; Potency, µM, for inactives: max response, negative = inhibition, actives largely listed as inhibitors; 310,000 compounds, 3.5% hits; AID 1490; active = well fitted inhibition curve with a large enough effect; inconclusive = small, poorly fitted or top-dose-only effect, or another doubt; inactive = no such curve, though single readings can be large or run the other way;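 also: the enzyme is Sfp with the accession as filed and its product quenches rhodamine fluorescence; potency is read from the fitted curve at half-maximal effect; 0% = enzyme reaction without inhibitor and -100% = no enzyme wells; top concentration of the series not given in the record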
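Reaction rates are the 30-min fluorescence difference (ex 525, em 598 nm) in wells containing 15 nM Sfp, 5 uM rhodamine-CoA and 12.5 uM BHQ-2-YbbR at pH 7.6 with 10 mM MgCl2.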
TRPML1 inh – blocks the human TRPML1 channel; Q9GZU1; TRPML1-inducible cells, Ca2+ dye fluorescence, FDSS; stronger effect = lower value; inhibition of EC80 agonist-evoked calcium signal; activity change, negative = inhibition, % (no concentration beside the values); 390,000 compounds, 0.02% hits; AID 624415; in the data active means activity change below about -50%; inconclusive means about -30% to -50%; inactive means above about -30%;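 also: stimulus is agonist 54-4 at its EC80 concentration; % is scaled to controls: 0 for no effect and ±100 for the full control effect; compound concentration not given in the record; the text of the record puts the active cut at -80%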
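Calcium fluorescence in TRPML1-DL cells induced overnight with Tet: a 110 s read after compound pin addition, then a 110 s antagonist read after challenge with 54-4 at 4 uM final (EC80).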
TRPV1 potentiator – human TRPV1 potentiation. TRPV1-expressing cells, Fluo-8 calcium influx, capsaicin EC20 potentiation; host cell line not named in the record; control for the full effect not named in the record. 320,000 compounds, 0.02% hits. Q8NER1. potentiation, % at 8.33 µM; active means potentiation above 80%; inconclusive means 30% to 80%; inactive means below 30%; also: 0% is about no effect
Target sequence (Q8NER1 whole entry, looked up): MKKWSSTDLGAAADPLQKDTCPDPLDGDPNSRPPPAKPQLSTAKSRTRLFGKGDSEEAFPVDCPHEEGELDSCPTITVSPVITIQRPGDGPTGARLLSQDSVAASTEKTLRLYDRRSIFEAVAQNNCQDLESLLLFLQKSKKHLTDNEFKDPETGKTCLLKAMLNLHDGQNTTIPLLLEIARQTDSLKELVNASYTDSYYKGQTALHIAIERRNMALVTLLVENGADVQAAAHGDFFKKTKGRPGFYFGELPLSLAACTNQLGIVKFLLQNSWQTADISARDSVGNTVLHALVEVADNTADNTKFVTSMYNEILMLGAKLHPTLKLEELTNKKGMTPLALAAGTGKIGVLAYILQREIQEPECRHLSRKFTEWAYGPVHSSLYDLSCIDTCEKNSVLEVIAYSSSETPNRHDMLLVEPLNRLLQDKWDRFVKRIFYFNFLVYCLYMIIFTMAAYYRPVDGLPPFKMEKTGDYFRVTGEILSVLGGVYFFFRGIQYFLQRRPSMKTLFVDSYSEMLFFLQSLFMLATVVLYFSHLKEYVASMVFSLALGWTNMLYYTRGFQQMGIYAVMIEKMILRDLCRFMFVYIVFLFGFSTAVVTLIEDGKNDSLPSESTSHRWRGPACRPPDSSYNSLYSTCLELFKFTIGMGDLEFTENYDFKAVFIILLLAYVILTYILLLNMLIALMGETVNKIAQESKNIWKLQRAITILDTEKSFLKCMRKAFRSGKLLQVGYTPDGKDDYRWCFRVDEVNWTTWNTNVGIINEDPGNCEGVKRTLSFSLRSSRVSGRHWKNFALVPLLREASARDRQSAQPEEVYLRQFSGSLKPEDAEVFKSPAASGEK
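Cells expressing TRPV1 were dye-loaded with Fluo-8 and read kinetically: 10 s baseline, 3 min after compound (agonist portion), then 2 min after EC20 capsaicin (allosteric enhancer portion). Calcium-bound dye fluorescence at 480/520 nm.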
ClpP mod – qHTS Assay for Activators of ClpP; ATP-dependent Clp protease proteolytic subunit (Bacillus subtilis (strain 168)), P80244; 340,000 compounds, 1.9% hits; purified B. subtilis ClpP, FRET peptide cleavage, 20 min; AID 651965, 2013; Potency, µM (series often up to 57.5 µM), for inactives: top-dose activity change, negative = active; active = well fitted falling curve with a large enough effect; inconclusive = small, poorly fitted or top-dose-only effect; inactive = no such curve, though single readings can be large or run the other way; also: potency is read from the fitted curve at half-maximal effect; the source files actives as falling curves though it sought activators and does not explain the sign; nearly all actives have a fitted effect of over 65% in size; many hits overshoot -100%
Target sequence (P80244 whole entry, looked up): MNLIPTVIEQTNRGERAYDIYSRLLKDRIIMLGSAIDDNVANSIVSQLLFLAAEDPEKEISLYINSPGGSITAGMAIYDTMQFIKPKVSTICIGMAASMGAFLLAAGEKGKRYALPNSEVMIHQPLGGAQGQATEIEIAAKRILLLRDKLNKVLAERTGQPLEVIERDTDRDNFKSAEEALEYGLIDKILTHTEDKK
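Buffer: 100 mM Tris/HCl pH8, 100 mM KCl, 0.05% low protease BSA, 2.5% glycerol, 0.01% Tween-20. ClpP 10 microg/mL final; 20 min RT; delta FRET normalized to ADEP and DMSO controls.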
gsp antag – gsp mutant antagonism | Potency, µM (doses to about 76.9 µM), without a hit: at the top dose activity change, negative = inhibition, most hits filed as inhibitors | gsp-mutant cells, cAMP HTRF, 30 min; control for the full effect not named in the record | AID 624288 | 340,000 compounds, 0.4% hits; active = falling curve of any shape with a large fitted effect; inconclusive = falling curve, mostly with a smaller effect; inactive = flat or rising curve; cell line not stated here;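 also: intracellular cAMP measured with PDE inhibitor Ro 20-1724 present during compound exposure; potency is read from the fitted curve at half-maximal effect; % is scaled to controls: 0 for no effect and ±100 for the full control effect; nearly all actives have a fitted effect of over 65% in size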
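G418-selected cells were plated in DMEM/10% FBS for 16-24 h at 37C, then treated with compounds plus the PDE inhibitor […] (300 uM solution added) for 30 min at 37C. Intracellular cAMP was measured by HTRF after 30 min lysis at room temperature.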
* = called active by the depositor; ? = inconclusive; . = not tested or not shown; [ ] = dose if it differs, or a comment.

#	structure	gsp ag	Menin-MLL FL inh	Sfp inh	TRPML1 inh	TRPV1 potentiator	ClpP mod	gsp antag
1	O=C(Nc1nnc(-c2cccs2)s1)c1cccc(F)c1	25.8%[15.4 µM]	0.7	-28.6%	14.1	-10.6	0.0%	-44.7%
2	Cn1c(=O)cc(N2CCN(C(=O)c3ccco3)CC2)[nH]c1=O	-124.0%[inhibitor]	1.3	2.2%	-13.5	0.6	-0.3%	3.9%
3	Cc1ccc(-c2nnc(NCc3ccccc3)c3ccccc23)cc1	-11.5%[15.4 µM]	2.7	-18.1%	4.5	16.5	0.7%	-8.1%
4	CCOc1ccc(CCNC(=O)Cc2nn[nH]n2)cc1OCC	7.8%	2.5	-17.8%	10.8	10.2	-1.7%	7.8%
5	O=C1/C(=N\O)Cc2ccccc21	1.1%	1.4	-4.2%	-0.1	-11.7	-14.3%	6.7%
6	CC1CCCC(C)N1C(=O)COC(=O)c1cc(F)c(F)cc1Cl (stereo not given)	-13.0%	.	.	15.3	.	0.1%	-24.7%
7	CC(C)(C)c1ccc2c(c1)OC(C(=O)N/N=C\c1ccncc1)CO2 (stereo not given)	-3.4%[15.4 µM]	1.1	9.5%	20.6	-5.3	.	-4.3%
8	Cc1c(/C=N/Nc2ccc(F)cc2)c(O)n(C)c(=O)c1C#N	20.8%	17.9	-15.4%	3.3	10.6	-19.7%	-8.3%
9	COCCn1c(C)cc(C(=O)CSc2nnc(C3CC3)n2C2CC2)c1C	3.7%	.	.	-2.2	-2.9	1.6%	-3.2%
10	COC(=O)c1c(C)oc2cc(Br)c(OCC(=O)C(C)(C)C)cc12	-23.7%	3.3	30.9%	8.3	-11.7	0.6%	2.1%
11	Cn1c2c(c3ccccc31)CCSC2=O	24.6%	3.9	10.3%	-4.3	-10.8	-10.8%	5.9%
12	O=C(NCc1ccccc1)C1=C[C@@H](c2coc3ccccc3c2=O)C[C@@H](OCc2ccc(CO)cc2)O1	25.2%	9.3	7.3%	-5.6	1.0	1.2%	-31.3%
13	Cc1ccc(NC(=O)CSc2nnc(C)c(=O)n2N)c(C)c1	-7.4%	-1.3	-10.8%	4.2	11.1	-1.3%	10.4%
14	O=C(CN1C(=O)c2ccccc2C1=O)N1CCCCC1	-32.0%[inhibitor]	2.7	-2.8%	3.0	0.1	0.6%	-3.4%
15	Cc1ccc(S(=O)(=O)N(C)CC(=O)Nc2ccccc2N2CCCC2)cc1	-10.4%	.	.	-1.9	-18.5	-1.5%	5.9%
16	CCOC(=O)C1=CN(CC)S(=O)(=O)NC1CCc1ccccc1 (stereo not given)	.	.	.	7.6	.	-5.1%	-10.3%
17	Cc1ccc(/C=N/N(C)C2=NS(=O)(=O)c3ccccc32)o1	.	15.5	?	.	-17.9	.	.
18	CN(C(=O)c1ccc(NC(=O)Cc2cccc(NC(=O)C3CCN(C(=O)C4CC4)CC3)c2)cc1)C1CCCC1	.	.	.	-15.3	0.3	0.8%	2.8%
19	COc1ccc(C2Sc3nncn3N2Cc2ccc(C#N)cc2)cc1 (stereo not given)	-32.5%[inhibitor]	-1.0	11.7%	-17.3	-12.4	-1.9%	-11.0%
20	COc1ccc([C@H]2/C=C\CN(C(=O)[C@H](Cc3ccccc3)NC(=O)OCC3c4ccccc4-c4ccccc43)CC(=O)N2Cc2ccc(F)cc2)cc1	10.4%	.	.	9.7	.	-11.6%	1.7%
21	O=c1cc2c(nn1Cc1cccc(Cl)c1)-c1ccccc1CC2	-9.7%	0.0	-24.2%	-10.7	-16.8	-25.9%	-5.8%
22	O=C(N/N=C/c1ccc2c(c1)OCO2)/C(=C/c1ccc2c(c1)OCO2)NC(=O)c1ccccc1	15.8%	0.6	4.3%	-11.4	3.4	-7.4%	4.9%
23	CN(C)c1ccc(P(=O)(OC2CCCCC2)C(O)c2cccnc2)cc1 (stereo not given)	26.5%	2.9	10.8%	6.4	-6.4	5.3%	3.6%
24	O=C(CSc1nc2ccccc2n1CCc1ccccc1)NC1CCS(=O)(=O)C1 (stereo not given)	-40.8%[inhibitor]	-0.1	?	-1.2	-21.9	-0.6%	-13.1%
25	Nc1c(Cl)c(Cl)nc(C(=O)OCC(=O)NCc2ccccc2)c1Cl	7.6%	.	.	-4.5	-0.5	-0.5%	3.7%
26	CCSC1=N/C(=C\c2ccc(OC)cc2)C(=O)N1	-2.7%[15.4 µM]	1.5	-47.5%	-7.5	-15.5	1.2%	7.0%
27	CCCc1cc(=O)oc2cc(C)cc(OCC(=O)NC(Cc3c[nH]c4ccc(O)cc34)C(=O)O)c12 (stereo not given)	.	-2.3	14.0%	.	-15.1	5.2%	-5.1%
28	O=C(NC1CCN(C(=O)NC2CCCCC2)CC1)c1ccco1	-4.7%	0.1	24.2%	-11.4	-7.6	-1.1%	-2.9%
29	CSc1ccccc1C(=O)C1CCCN(C(=O)c2ccc(N3CCOCC3)cc2)C1 (stereo not given)	-26.9%	0.3	7.2%	-0.1	-9.3	.	-14.3%
30	CCc1c(C)nc(SCC(=O)c2cccs2)c(C#N)c1C	-14.3%	?	1.9%	40.4	-2.8	0.6%	-16.0%
31	CCCCc1c(C)nc2ccccc2c1SCCC#N	21.4%	-2.0	-8.2%	-3.8	-8.3	.	-3.9%
32	Cc1ccc(C(=O)Nc2ccc(NC(=O)c3cccs3)cc2)cc1[N+](=O)[O-]	-15.9%	-0.5	21.5%	0.7	-2.6	2.3%	2.3%
33	COc1ccc(NC(=O)CN2C(=O)/C(=C3\SC(=S)N(C4CCS(=O)(=O)C4)C3=O)c3ccccc32)cc1 (stereo not given)	17.9%	6.4	14.1µM*	12.9	24.9	.	0.1%
34	O=C1c2ccccc2C(=O)c2c1cccc2N1CCOCC1	8.1%[15.4 µM]	2.8	-8.2%	5.0	2.5	-2.5%	-16.6%
35	CC(=O)c1ccc(NC(=O)C2Cc3ccccc3CN2C(=O)c2ccccc2)cc1 (stereo not given)	-58.8%[inhibitor]	2.3	-15.0%	34.6	-31.1	-2.8%	-10.9%
36	Cc1ccc(-c2csc(/C(C#N)=C/Nc3ccccc3SC(F)(F)F)n2)c(C)c1	-30.2%	3.9	7.2%	7.4	4.2	0.9%	6.7%
37	Cc1ccc(NC(=O)C2CCCN2C(=O)OCc2ccccc2)cc1C (stereo not given)	-51.8%[inhibitor]	.	17.6%	-7.3	4.0	0.5%	8.5%
38	COc1cc(C(=O)NC(=S)Nc2ccc3c(c2)C(=O)N(C)C3=O)cc(OC)c1OC	-0.9%	-5.1	-5.3%	9.8	-1.0	2.5%	1.8%
39	CCOC(=O)c1c(C)n(C)c2ccc(OCC(O)Cn3nc(C)c(Br)c3C)cc12 (stereo not given)	14.8%	-1.3	2.6%	10.2	-16.1	-19.5%	-6.8%
40	Cc1ccc(CNC(=O)c2ccc(N3CCC4(CC3)CC(c3ccccc3)=NO4)c(NC(=O)c3c(Cl)cccc3Cl)c2)cc1	.	.	.	-18.3	5.6	-1.6%	3.0%
41	CCOC(=O)c1ccc(NC(=S)NNC(C)(C)C)cc1	0.7%	0.4	0.2%	-19.5	26.5	1.8%	3.1%
42	COc1ccccc1N(C)S(=O)(=O)c1ccc(C(=O)N2CCCC(C(F)(F)F)C2)cc1 (stereo not given)	0.5%[15.4 µM]	.	.	30.5	-5.2	.	-7.0%
43	CCOC(=O)C1CCCCN1Cc1ccc(C(F)(F)F)cc1 (stereo not given)	-12.0%	0.4	?	-2.9	-0.4	2.2%	2.7%
44	CC(OC(=O)Cn1cnc2c1c(=O)n(C)c(=O)n2C)C(=O)NCc1ccccc1 (stereo not given)	-18.5%[15.4 µM]	.	.	-5.0	8.8	.	11.3%
45	O=C(CCc1ccc(O)cc1)N/N=C/c1coc2ccccc2c1=O	-2.5%[15.4 µM]	-0.6	10.4%	-16.0	-12.9	.	5.6%
46	CCC(=O)N1N=C(c2cccs2)CC1c1ccc(C)cc1 (stereo not given)	4.9%	-3.7	-5.2%	25.3	-7.6	4.3%	-9.5%
47	COc1ccc(-c2cc3nc(C)cc(N4CCN(C(=O)c5ccoc5)CC4)n3n2)cc1	-54.5%[inhibitor]	.	.	0.2	.	-24.3%	.
48	CCc1ccccc1NC(=O)c1cnccn1	-11.8%	0.2	8.8%	8.5	1.5	-0.7%	0.2%
49	Cc1ccc(C)c(N(CC(=O)NC2CCCC2)S(=O)(=O)c2ccccc2)c1	-11.2%[15.4 µM]	.	5.9%	0.3	-12.5	1.6%	-22.1%
50	CCOCCCNc1nc2c(-c3ccccc3)nnn2c2ccccc12	19.6%	0.2	21.5%	50.9	1.3	-22.1%	-2.7%

The listing continues.
#	structure	gsp ag	Menin-MLL FL inh	Sfp inh	TRPML1 inh	TRPV1 potentiator	ClpP mod	gsp antag
51	Cc1cnc(C(=O)OCC(=O)Nc2cc(-c3ccccc3)nn2-c2ccccc2)cn1	-12.9%	.	.	-20.6	12.4	1.5%	-11.1%
52	COc1ccccc1N1CC(C)(C)C(=O)N(C(=O)c2ccc(Cl)cc2)C1=S	-3.4%[15.4 µM]	0.0	19.5%	-1.8	1.0	0.8%	-4.5%
53	O=C(Nc1ccc(N2CCN(C(=O)c3ccc(Cl)cc3)CC2)cc1)c1cc2ccccc2o1	?	1.9	-2.8%	-6.2	-6.7	4.4%	1.2%
54	O=[N+]([O-])c1ccc(/C=N/Nc2cc(Cl)nc(-c3ccccc3)n2)cc1	-21.1%	5.1	18.2%	24.9	-1.9	1.6%	3.1%
